miR-21 FLuc: raises the signal of a miR-21 reporter; HeLa miR-21 FLuc reporter, luciferase, 48 h; Potency, µM (doses to about 38.3 µM), inactives show at the top dose reporter change, positive = more light; 340,000 tested, under 10 active; active = well fitted rising curve with a large enough effect; inconclusive = small, poorly fitted or top-dose-only effect; inactive = no such curve, though single readings can be large or run the other way;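 further: % of control where 0% means no effect; miR-21 action dims this reporter so a rising signal means less miR-21 action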
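HeLa miR-21-FLuc reporter line, endogenous miR-21; 2000 cells/well in DMEM/10% FBS; compound titration up to ~40uM final, 48 h, 37 degree Celsius; luciferase detection reagent, 15 min lysis, CCD luminescence.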
Rango complex inh: prevents formation of the Rango-importin beta complex; 0.031% of 340,000 active; Rango CFP/YFP FRET sensor + importin beta, 45 min; Q14974; Potency, µM (highest dose often 92.2 µM), without a hit: at the top dose inhibition of complex formation; active = rising FRET ratio curve, often small or poorly fitted; inconclusive = mostly compound fluorescence or quenching in the first reads; inactive = flat curves in all reads;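 further: potency means the concentration at half of the fitted maximal effect; 0% = DMSO wells and 100% = buffer wells lacking importin beta; nearly all actives have a fitted effect of over 15% in size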
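FRET biosensor Rango (snurportin 1 IBB between N-terminal EYFP and C-terminal Cerulean), 50 nM in PBS/1 mM DTT/0.02% Tween-20/0.1% BSA, preincubated 5 min RT with compound; 0.125 microM importin beta added, 45 min RT, CFP/YFP FRET ratio read.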
GLA inh pH 4.5: alpha-galactosidase A (human) inhibition, pH 4.5. P06280. purified enzyme, 4-MU-alpha-Gal fluorescence, pH 4.5. activity change, negative = inhibition, % at 105 µM. 230,000 tested, under 10 active. AID 1467; inconclusive = small, poorly fitted or top-dose-only inhibition, or a rising curve; inactive = flat fitted curve, though single readings scatter; no compound was filed as active;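 further: 0% = full activity with enzyme and -100% = basal without enzyme; dose as in the result columns while the protocol names 77 µM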
Target sequence (P06280 whole entry, looked up): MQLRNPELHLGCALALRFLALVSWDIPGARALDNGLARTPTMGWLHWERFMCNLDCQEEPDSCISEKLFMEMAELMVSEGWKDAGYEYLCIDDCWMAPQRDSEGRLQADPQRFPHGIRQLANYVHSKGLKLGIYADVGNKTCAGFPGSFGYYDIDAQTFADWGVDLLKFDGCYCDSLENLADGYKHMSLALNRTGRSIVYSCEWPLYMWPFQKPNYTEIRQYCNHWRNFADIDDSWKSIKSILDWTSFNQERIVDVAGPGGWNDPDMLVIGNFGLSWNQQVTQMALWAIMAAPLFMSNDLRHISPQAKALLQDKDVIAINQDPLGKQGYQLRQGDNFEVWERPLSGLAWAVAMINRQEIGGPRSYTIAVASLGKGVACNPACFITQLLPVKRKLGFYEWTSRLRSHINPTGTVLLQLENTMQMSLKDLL
Rango dissoc inh: inhibition of RanGTP-driven Rango-importin beta dissociation; 0.071% of 340,000 active; AID 540253; Biochemical FRET Rango-importin beta, RanGTP-induced dissociation; Potency, µM (series often up to 46.1 µM), for inactives: top-dose activity change, negative = inhibition; active means falling FRET ratio curve, often poorly fitted, with flat reads before Ran was added; inconclusive means other falling curves, or compound fluorescence or quenching; inactive means flat or rising ratio curve;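 further: potency means the concentration at half of the fitted maximal effect; % of control where 0% means no effect; nearly all actives have a fitted effect of over 45% in size; -100% = wells without RanGTP and RCC1; the record marks most hits as doubtful in a second field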
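Compounds preincubate 5 min with complex of recombinant Rango and importin beta in PBS with 1 mM DTT. Ran (0.6 uM) loaded with 2 mM GTP plus 0.2 uM RCC1 starts dissociation; FRET is recorded 45 min later.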
Active calls of the source: *; ? = inconclusive; . = no result given. This is a subset; the hit share may differ from the screen's.

SMILES | miR-21 FLuc | Rango complex inh | GLA inh pH 4.5 | Rango dissoc inh
O=C(CS(=O)(=O)Cc1ccccc1)Nc1ccc(S(=O)(=O)N2CCOCC2)cc1 | -5% | 3.1% | -3 | 3%
c1ccc(CCn2nnnc2C(c2cccnc2)N2CCN(c3nc4ccccc4s3)CC2)cc1 (centres undefined) | 14% | -4.4% | -9 | -1%
C=C1CCC(O)C2(C)CCC3C(C)C(=O)OC3C12O (centres undefined) | -1% | -2.8% | . | 4%
O=C(Nc1cccnc1)c1ccc(CSc2ccccc2)cc1 | -32% | 0.7% | -6 | -4%
O=C(Nc1cccc(Cl)c1)Nc1ccccc1C(=O)O | -27% | 0.9% | -9 | 8%
COc1cccc(CC(=O)Nc2nc3ccccc3[nH]2)c1 | -27% | -0.6% | 8 | 0%
CC(C)NC(=O)CN(c1cccc(Br)c1)S(C)(=O)=O | -4% | 5.1% | -7 | 0%
CC(C)(NC(=O)N1CCCC1)c1cccc(C(C)(C)NC(=O)N2CCCC2)c1 | -5% | -5.2% | -2 | -4%
Cc1nc2sc(C(c3ccco3)N3CC(C)OC(C)C3)c(O)n2n1 (centres undefined) | 6% | -0.3% | 0 | -5%
COc1cc(OC)cc(C(=O)N[C@H](C(=O)Nc2cc(F)ccc2C)C(C)C)c1 | -1% | -0.3% | . | -6%
COC(=O)c1ccc(OC)c(CN2CCCN(Cc3ccc(F)cc3)S2(=O)=O)c1 | 3% | -5.5% | . | 1%
O=C(N/N=C/c1cccs1)c1cc(-c2ccc3ccccc3c2)n[nH]1 | -30% | 1.8% | 7 | -12%
Nc1nonc1-n1nnc(C(=O)N/N=C/c2cccnc2)c1-c1ccccc1 | -4% | -0.7% | . | -15%
CCCCNS(=O)(=O)c1ccc(OCC(=O)OC)cc1 | ? | -0.9% | -3 | -9%
C[C@H](CO)N1C[C@H](C)[C@@H](CN(C)S(=O)(=O)c2cn(C)cn2)Oc2ccc(NC(=O)Nc3ccc4c(c3)OCO4)cc2C1=O | . | 0.3% | . | -1%
COC(=O)CC(=O)Cc1nc(N)nc(Nc2ccc(C)c(C)c2)n1 | 0% | -5.1% | 0 | 2%
Nc1c(O)cccc1C(=O)O | . | -2.6% | . | 1%
C=CCOC(=O)C1=C[C@@H](c2coc3ccccc3c2=O)[C@H](CCCO)[C@@H](OCC)O1 | -7% | 0.7% | 1 | 0%
Cc1c(-c2ccccc2)n[nH]c1C(=O)N=Nc1c(O)[nH]c2ccccc12 | -17% | 3.7% | -9 | 6%
CCc1ccc(OCC(=O)NC(=S)Nc2ccc(C)cc2C)c(Br)c1 | -13% | -1.4% | 1 | 3%
Cc1ccc(S(=O)(=O)N2CCC(C(=O)OCC(=O)N(C)CC(=O)Nc3ccc(F)cc3)CC2)cc1C | . | 0.6% | . | 0%
COc1ccc(N2C(=O)c3ccccc3NC2(C)C)cc1 | -44% | 5.0% | 9 | 5%
Cc1ccc(-n2nc3c([n+]2[O-])CCc2nonc2-3)cc1 | -12% | 1.7% | -1 | -9%
COc1ccc(OC)c(Nc2nc(N)nc(CSc3nnc(-c4ccncc4)o3)n2)c1 | -3% | . | 12 | .
C[C@H]1CN(C2CCCCC2)C(=O)[C@@H]1CC(=O)NCc1ccccc1 | -2% | 0.4% | . | 18%
CC(C)(C)c1ccc(/C=C/C(=O)N2CCOCC2)cc1 | -69% | -4.2% | 19 | -14%
Cc1cccc([N+](=O)[O-])c1NC(=O)CN(Cc1ccccc1)Cc1ccccc1 | -3% | 0.6% | -4 | 8%
COc1ccc(C(CNC(=O)COc2ccc(F)cc2Cl)N2CCCCC2)cc1 (centres undefined) | . | -0.2% | . | -1%
Nc1nc(NCc2ccco2)nc(Nc2ccc(F)cc2)c1[N+](=O)[O-] | -6% | -2.4% | 3 | -11%
Cc1ccc(CN2CCC(n3nccc3NC(=O)c3ccccc3C)CC2)o1 | -7% | -0.1% | . | -3%
O=S(=O)(NCC(c1ccco1)N1CCN(c2ccccc2F)CC1)c1ccc2c(c1)OCCO2 (centres undefined) | ? | -0.7% | 7 | -13%
CC(=O)c1cccc(NC(=O)c2ccc(N(Cc3ccc(C)cc3)S(C)(=O)=O)cc2)c1 | 27% | 0.7% | -11 | 22%
CCOc1ccc2c(c1)c(=O)c(S(=O)(=O)c1ccc(C)cc1)cn2CC | -4% | -3.4% | . | -1%
O=C(C[C@H]1C/C=C\C[C@H](NC(=O)OCC2c3ccccc3-c3ccccc32)C(=O)O[C@@H](c2ccccc2)CNC1=O)NCCO | . | ? | . | 0%
CCOC(=O)c1c(-c2ccccc2)[nH]c2ccc(O)cc12 | -2% | -2.0% | -11 | -16%
CC(Oc1ccc2c3c(c(=O)oc2c1)CCCC3)C(=O)NCc1ccncc1 (centres undefined) | 1% | 0.9% | . | 4%
CCOc1ccc(NC(=O)Nc2ccc(N(C)C(C)=O)cc2)cc1 | 7% | 3.1% | 4 | -23%
CCN(C(=O)COC(=O)c1cc(OC)c(OC)cc1[N+](=O)[O-])C1CCS(=O)(=O)C1 (centres undefined) | -1% | 0.7% | 5 | 4%
C#CCn1c2ccccc2c2nc3ccccc3nc21 | -10% | ? | . | ?
COc1ccccc1-c1nc2ccccc2c(=O)n1NC(=O)c1cccs1 | -4% | -0.3% | -6 | 0%
C=CCNC(=S)N/N=C/c1ccc(C)s1 | -3% | 4.1% | -12 | 5%
CCN(CC)c1ccc(C(=O)OCc2c(C)noc2C)cc1 | -9% | -0.3% | -17 | -5%
CCOc1ccccc1-n1c(COc2ccc(C)cc2)nnc1SCC(N)=O | -3% | 2.0% | -1 | -1%
COC(=O)c1ccc(NC2c3ncccc3C(=O)N2Cc2cccs2)cc1 (centres undefined) | -10% | 5.1% | -2 | ?
COc1ccc(NC2=NCCC2)cc1 | 1% | -0.5% | -1 | 1%
COc1ccc(S(=O)(=O)N2CCN(CC(=O)Nc3sccc3C(N)=O)CC2)cc1OC | . | -2.7% | . | -8%
Cn1nnnc1SCC(=O)c1c(N)n(C)c(=O)n(C)c1=O | 0% | 0.1% | -4 | 10%
COc1cccc(CNC(=O)CCC2CCCN(Cc3ccc4c(c3)CCO4)C2)c1 (centres undefined) | -3% | -1.5% | 0 | 1%
CCCCNCc1cc(OCC)c(OCC(N)=O)cc1Br | 5% | -0.9% | 4 | 1%
COc1ccc(C2/C=C\CN(C(=O)NC(C)C)CC(=O)N2Cc2ccc(F)cc2)cc1 (centres undefined) | 8% | 5.1% | -2 | 1%
Cc1[nH]c(=O)c(C#N)cc1-c1csc(-c2ccccc2)n1 | -4% | -0.5% | . | 17%
CCC(C(=O)NCCCN(CC)Cc1ccccc1)n1nc(C)c2sc3ccccc3c2c1=O (centres undefined) | 3% | -0.8% | . | 17%
COc1ccc(C(=O)c2cnc(/N=C/N(C)C)s2)cc1 | -43% | -2.5% | -11 | -12%
CC(C(=O)OCc1nnc(-c2ccccc2)o1)N1C(=O)c2ccccc2C1=O (centres undefined) | -21% | -2.4% | 4 | -10%
Cc1cccc(N(CC(=O)NC2CCCC2)C(=O)c2cc3cc4cccc(C)c4nc3s2)c1C | 1% | ? | -2 | 2%
O=c1ccc2ccc(Oc3ccc([N+](=O)[O-])cc3[N+](=O)[O-])cc2o1 | 19% | . | 14 | .
CC(=O)Nc1c(NC(C)C)c2ccccc2oc1=O | 0% | -3.1% | -1 | 20%
CCc1ccc(C(=O)COC(=O)CNC(=O)C2CCCCC2)cc1 | . | 1.2% | . | 9%
CCOC(=O)c1[nH]ncc1CN1CCCC(C(=O)c2ccc(OC)cc2C)C1 (centres undefined) | -3% | 0.2% | 4 | 0%
COc1ccc(C(=O)OCc2c(F)cccc2Cl)cc1S(=O)(=O)N1CCOCC1 | . | 0.6% | . | 18%

Filtered by structure: the entries above with a thiophene ring, fused or not (seven)
SMILES | miR-21 FLuc | Rango complex inh | GLA inh pH 4.5 | Rango dissoc inh
O=C(N/N=C/c1cccs1)c1cc(-c2ccc3ccccc3c2)n[nH]1 | -30% | 1.8% | 7 | -12%
COc1ccccc1-c1nc2ccccc2c(=O)n1NC(=O)c1cccs1 | -4% | -0.3% | -6 | 0%
C=CCNC(=S)N/N=C/c1ccc(C)s1 | -3% | 4.1% | -12 | 5%
COC(=O)c1ccc(NC2c3ncccc3C(=O)N2Cc2cccs2)cc1 (centres undefined) | -10% | 5.1% | -2 | ?
COc1ccc(S(=O)(=O)N2CCN(CC(=O)Nc3sccc3C(N)=O)CC2)cc1OC | . | -2.7% | . | -8%
CCC(C(=O)NCCCN(CC)Cc1ccccc1)n1nc(C)c2sc3ccccc3c2c1=O (centres undefined) | 3% | -0.8% | . | 17%
Cc1cccc(N(CC(=O)NC2CCCC2)C(=O)c2cc3cc4cccc(C)c4nc3s2)c1C | 1% | ? | -2 | 2%

Continued.
SMILES | miR-21 FLuc | Rango complex inh | GLA inh pH 4.5 | Rango dissoc inh
COc1cccc(CNc2ncn[nH]2)c1OCc1ccccc1F | 5% | -5.7% | 4 | -1%
COC(=O)Nc1nnc(Cc2ccc(OC)cc2)s1 | -6% | 0.8% | 3 | 7%
O=C(Nc1cc2nn(-c3ccccc3)nc2cc1Cl)c1ccco1 | -32% | -3.2% | 0 | 1%
OCc1n[nH]c(CO)n1 | -1% | -6.2% | 1 | 1%
O=C(CCCN1C(=O)c2cccc3cccc(c23)C1=O)N1CCN(c2ccccc2O)CC1 | -8% | -0.7% | -20 | 8%
O=C(OCC(=O)N1CCCCC1)c1ccccc1SCC(=O)N1CCCCC1 | -16% | -1.4% | 8 | -4%
O=c1[nH]c(CSc2nnc(Cc3ccccc3)o2)nc2ccccc12 | -1% | 0.4% | 2 | -6%
COc1ccc(/C(C)=N/N=C2/NC(=O)CC(C(=O)O)S2)cc1 (centres undefined) | -2% | 5.1% | 3 | 1%
CN(CCCNC(=O)CN1C(=O)CC(C)(C)S(=O)(=O)c2ccccc21)C1CCCCC1 | -2% | ? | -7 | 11%
COc1ccc(C2/C(=C(\O)c3cc(C)ccc3C)C(=O)C(=O)N2CCN(C)C)cc1OC (centres undefined) | -3% | -4.3% | -11 | 7%
C=CCn1c(SC)nnc1-c1cccc([N+](=O)[O-])c1 | -2% | 2.6% | 1 | 15%
O=C(NCc1ccc(N2CCCC2=O)cc1)c1cn(CCc2ccccc2)nn1 | -2% | 0.6% | 0 | 17%
Cc1nnc(SCC(=O)N(C)C2CCCCC2)s1 | -27% | 0.1% | 1 | 3%
COc1ccc(N2CCN(C(=O)Cn3nnc(-c4cccs4)n3)CC2)cc1 | -5% | 0.0% | 2 | 11%
CCN1CCc2c(sc(NC(=O)C3COc4ccccc4O3)c2C(N)=O)C1 (centres undefined) | -46% | ? | . | ?
CCN(CC)c1ccc(NC(=O)c2ccc(S(=O)(=O)N3CCOCC3)cc2)cc1 | . | 2.9% | . | 3%
Cn1ccnc1SCC(=O)Nc1ccc2nc(SCC(=O)NC3CC3)sc2c1 | -30% | -0.1% | 9 | -4%
CN1CCC(=NNC(=O)C(=O)NC2CCCC2)CC1 | -3% | -5.1% | -4 | 5%
CCC(CC)c1ncc[nH]1 | 0% | 0.3% | 9 | -1%
O=c1c2c3nc4ccccc4nc3n(-c3ccc4c(c3)OCCO4)c2ncn1C1CCCC1 | -8% | ? | 2 | -3%
COc1ccc(C(=O)N/C(=C\c2cn(S(=O)(=O)N(C)C)c3ccccc23)C(=O)NCCCN2CCOCC2)cc1 | -8% | 1.7% | . | 1%
CN(C(=O)c1cc2c(s1)-c1ccccc1S(=O)(=O)C2)c1ccccc1 | -9% | -2.2% | -5 | 0%
COCCN(CC(=O)Nc1ccccc1)S(=O)(=O)c1ccc(S(=O)(=O)N2CCCC2)cc1 | -1% | 1.3% | 8 | -3%
O=C(O)CCc1c(C(=O)O)[nH]c2ccccc12 | -1% | -3.3% | -4 | -1%
CC(C)(C)n1nnnc1C(c1ccc(F)cc1)N(Cc1ccc(F)cc1)Cc1ccco1 (centres undefined) | 2% | -1.2% | -7 | -11%
Cc1[nH]c2ccccc2c1C(=O)CSc1n[nH]c(N)n1 | -19% | 4.3% | -9 | -2%

Screening data deposited in PubChem by National Center for Advancing Translational Sciences (NCATS).
